Screens: PubChem BioAssay, National Center for Advancing Translational Sciences (NCATS)
Rango dissoc inh: prevents RanGTP from dissociating the Rango-importin beta complex; O95149+P62826; Biochemical FRET Rango-importin beta, RanGTP-induced dissociation; Potency, µM (highest dose often 46.1 µM), without a hit: at the highest dose activity change, negative = inhibition; 340,000 compounds, 0.071% hits; AID 540253; active means falling FRET ratio curve, often poorly fitted, with flat reads before Ran was added; inconclusive means other falling curves, or compound fluorescence or quenching; inactive means flat or rising ratio curve;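 also: potency is read from the fitted curve at half-maximal effect; % of control where 0% means no effect; nearly all actives have a fitted effect of over 45% in size; -100% = wells without RanGTP and RCC1; the record marks most hits as doubtful in a second field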
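Rango/importin beta premix (0.1/0.25 uM final), PBS + 1 mM DTT + 0.02% Tween-20 + 0.1% BSA; cpd 5 min RT; FRET pre-read; + RanGTP-RCC1 (0.6 uM Ran, 2 mM GTP, 0.2 uM RCC1); 45 min RT; FRET post-read, ex 430, em 486/530 nm.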
Rango-impB inh: Rango-importin beta binding inhibition. Rango CFP/YFP FRET sensor + importin beta, 45 min. 340,000 compounds, 0.031% hits. Q14974. AID 540263. Potency, µM (highest dose often 92.2 µM), inactives show at the highest dose inhibition of complex formation; active = rising FRET ratio curve, often small or poorly fitted; inconclusive = mostly compound fluorescence or quenching in the first reads; inactive = flat curves in all reads;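 also: potency is read from the fitted curve at half-maximal effect; 0% = DMSO wells and 100% = buffer wells lacking importin beta; nearly all actives have a fitted effect of over 15% in size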
Target sequence (Q14974 whole entry, looked up): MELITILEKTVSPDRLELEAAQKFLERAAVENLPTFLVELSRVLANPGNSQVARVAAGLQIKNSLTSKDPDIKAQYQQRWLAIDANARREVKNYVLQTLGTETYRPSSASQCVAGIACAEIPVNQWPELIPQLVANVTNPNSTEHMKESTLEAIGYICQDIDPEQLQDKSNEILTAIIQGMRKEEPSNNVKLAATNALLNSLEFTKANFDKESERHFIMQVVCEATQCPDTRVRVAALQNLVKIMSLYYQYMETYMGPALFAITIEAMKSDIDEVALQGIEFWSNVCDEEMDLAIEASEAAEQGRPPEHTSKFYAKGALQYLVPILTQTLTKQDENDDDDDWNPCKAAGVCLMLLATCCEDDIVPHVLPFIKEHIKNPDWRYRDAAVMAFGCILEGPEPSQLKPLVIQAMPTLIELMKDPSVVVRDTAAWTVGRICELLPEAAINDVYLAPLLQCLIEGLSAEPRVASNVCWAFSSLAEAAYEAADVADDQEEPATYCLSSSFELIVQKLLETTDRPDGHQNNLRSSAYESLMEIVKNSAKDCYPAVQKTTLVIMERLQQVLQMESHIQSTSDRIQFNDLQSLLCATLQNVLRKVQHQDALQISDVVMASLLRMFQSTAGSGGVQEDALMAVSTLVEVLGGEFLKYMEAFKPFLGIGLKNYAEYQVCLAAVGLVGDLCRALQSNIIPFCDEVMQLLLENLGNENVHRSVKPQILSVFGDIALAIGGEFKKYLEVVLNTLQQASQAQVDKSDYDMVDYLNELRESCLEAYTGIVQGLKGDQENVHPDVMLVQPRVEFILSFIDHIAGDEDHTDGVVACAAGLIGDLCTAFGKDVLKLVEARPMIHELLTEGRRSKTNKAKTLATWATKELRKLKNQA
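FRET biosensor Rango (snurportin 1 IBB between N-terminal EYFP and C-terminal Cerulean), 50 nM in PBS/1 mM DTT/0.02% Tween-20/0.1% BSA, preincubated 5 min RT with compound; 0.125 microM importin beta added, 45 min RT, CFP/YFP FRET ratio read.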
miR-21 FLuc: miR-21 reporter, rising signal. Potency, µM (highest dose often 38.3 µM), for inactives: top-dose reporter change, positive = more light. HeLa miR-21 FLuc reporter, luciferase, 48 h. 340,000 tested, under 10 active. AID 2288; active = well fitted rising curve with a large enough effect; inconclusive = small, poorly fitted or top-dose-only effect; inactive = no such curve, though single readings can be large or run the other way;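 also: % of control where 0% means no effect; miR-21 action dims this reporter so a rising signal means less miR-21 action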
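Using DMEM plus 10% FBS, HeLa miR-21-FLuc cells are incubated with test compounds (final up to about 40uM) for 48 hours; firefly luciferase signal is then imaged following reagent-mediated lysis.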
GLA inh pH 4.5: inhibitors of human alpha-galactosidase A at pH 4.5 | purified enzyme, 4-MU-alpha-Gal fluorescence, pH 4.5 | 230,000 tested, under 10 active | activity change, negative = inhibition, % at 105 µM | P06280; inconclusive = small, poorly fitted or top-dose-only inhibition, or a rising curve; inactive = flat fitted curve, though single readings scatter; no compound was filed as active;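 also: 0% = full activity with enzyme and -100% = basal without enzyme; dose as in the result columns while the protocol names 77 µM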
Starred values were filed as active, the others as inactive; ? = inconclusive; / = not tested or not shown; & = joins results of further samples.

SMILES	Rango dissoc inh	Rango-impB inh	miR-21 FLuc	GLA inh pH 4.5
Cc1cccc(C)c1NC(=O)CNC(=O)C1COc2ccccc2O1 (stereo not given)	-5%	-0.6%	/	/
CCC1(C)Cc2ccccc2-c2nc3n(c(=O)c21)CCS3 (stereo not given)	19%	?	-2%	2
CCc1noc(C)c1C(=O)Nc1nc2ccc(F)cc2s1	4%	-3.1%	/	/
CC(C)Oc1cccc(C(=O)NC(=S)Nc2cccnc2)c1	-3%	3.3%	-65%	-6
CCN(CC)C(=O)c1cccc(NC(=O)c2cc(-c3ccccn3)nc3ccccc23)c1	1%	-0.2%	/	/
CN(Cc1cnn(-c2ccc(F)cc2)c1)Cc1nc(Cc2ccccc2)no1	11%	-1.3%	-2%	-14
COc1ccc(N2C(=O)[C@@H]3Cc4ccccc4CN3C2=O)cc1	14%	1.0%	-9%	-4
C[C@@H]1CC[C@H](O)/C=C/C(=O)O[C@H](C)CC[C@H](O)/C=C/C(=O)O1	0%	?	?	1
Cc1nc(SCC(=O)Nc2nccs2)c(C#N)c(C)c1C	26µM*	?	/	/
CC(C)C1N=C(c2ccc3c(c2)OCO3)CC(c2ccccc2O)N1 (stereo not given)	-17%	-1.0%	16%	0
CC(C)(C)OC(=O)NCc1ccc(CNC(=O)c2[nH]cnc2C(=O)N[C@@H](Cc2ccccc2)C(=O)OC(C)(C)C)cc1	-12%	-0.9%	26%	/
Nc1nc2nccc(-c3ccco3)n2n1	-11%	-4.5%	4%	7
CC(=O)OC1(C(C)=O)CCC2C3CC(C(F)(F)F)C4=CC(=O)CCC4(C)C3CCC21C (stereo not given)	7%	-4.2%	/	/
COc1ccc(CCNC(=O)NC23CC4CC(CC(C4)C2)C3)cc1OC	18%	1.0%	2%	18
CC(=O)c1cccc(N(C(=O)c2ccccn2)C(C(=O)NC2CCCCC2)c2cccs2)c1 (stereo not given)	-8%	1.0%	-2%	2
CCNC(=S)N/N=C(\C)c1ccc2c(c1)OCCO2	4%	1.7%	-33%	-5
CN1C[C@@H]2C(c3ccc(C(F)(F)F)cc3)C3(c4ccccc4)CC2(C3)[C@H]1c1ccccc1 (stereo not given in full)	17%	-4.1%	-1%	-8&-5
Cc1ccccc1-n1c(=S)[nH]c2nc3c(cc2c1=O)CCCC3	-12%	-0.1%	-2%	2
Cc1ccc(S(=O)(=O)N2CCCC(C(=O)NCCC3=CCCCC3)C2)cc1 (stereo not given)	4%	-0.9%	-3%	4
COc1cccc(N(CC(=O)NCCSCc2ccc(Cl)cc2)S(C)(=O)=O)c1	0%	-0.8%	5%	/
CC(=O)Nc1ccc(OCCOc2ccc(NC(C)=O)cc2)cc1	10%	-2.3%	1%	/
CCc1ccc(OCC(=O)NC2CC(C)(C)NC(C)(C)C2)cc1	-9%	8.1%	1%	-20
CN(Cc1cccs1)C(=O)CSc1nc(N)cc(N)n1	?	3.1%	-2%	6
COc1ccccc1NC(=O)CCCC(=O)OC(C)C(=O)c1ccccc1 (stereo not given)	11%	-3.6%	-1%	/
CCOC(=O)N/N=C/c1ccccc1F	11%	-3.1%	-43%	-6
Continued:
SMILES	Rango dissoc inh	Rango-impB inh	miR-21 FLuc	GLA inh pH 4.5
CCN1CCN(CCCN(Cc2ccco2)C(=S)Nc2ccc(C)c(Cl)c2)CC1	15%	-1.3%	1%	2
Clc1ccc(-n2nnc(-c3cccnc3Cl)n2)cc1Cl	-2%	4.9%	-52%	4
CCOC(=O)C(=NCCCN(C)C)NNc1ccc(Br)cc1	-6%	2.4%	-12%	0
O=C(C[n+]1ccc(-c2nnc3n2CCCCC3)cc1)c1ccc(Cl)cc1	-7%	?	-1%	-9
COc1ccc(C(=O)c2ccsc2N)cc1	-7%	4.6%	-57%	/
CCN(CC)S(=O)(=O)c1ccc(N2CC(C(=O)N3Cc4ccccc4CC3C(N)=O)CC2=O)cc1 (stereo not given)	?	-1.5%	/	/
COC(=O)c1cc(NC(=O)c2ccc(-c3ccccc3)cc2)ccc1Cl	1%	3.7%	-5%	7
O=C(NCCc1ccccc1)c1noc2c1CCc1ccccc1-2	-1%	1.0%	-32%	0
CCOc1ccc2oc(C(=O)NNC(=O)c3ccccc3O)c(C)c2c1	-6%	-2.2%	/	/
O=C(N/C=C/c1ccccc1)c1ccccc1	-23%	1.2%	/	/
Cc1ccccc1C1C(=O)c2ccccc2C1=O	31%	5.2%	7%	/
CCCCCC(=O)Nc1nc(C)c(-c2csc(Nc3ccccc3OC)n2)s1	-2%	2.1%	11%	-2
COc1cc(Cl)c(C)cc1NC(=O)c1ccccc1NC(=O)CN1CCN(c2ccccn2)CC1	-1%	1.7%	/	/
Cc1c(NC(=O)CC(O)(C(F)(F)F)C(F)(F)F)c(=O)n(-c2ccccc2)n1C	-1%	-5.7%	0%	-7
CCC1ON(C(C)C)C2c3nc4ccccc4n3CC12 (stereo not given)	-19%	-3.0%	-1%	0
Oc1c(C(Nc2cccc(C(F)(F)F)c2)c2cccnc2)ccc2cccnc12 (stereo not given)	1%	6.9%	9%	-17
CC(C)(C)c1ccc(C(=O)Nc2ccc(N3CCOCC3)cc2)cc1	13%	-1.8%	24%	10
CCOC(=O)[C@H]1[C@H]2COc3cc(OC)ccc3[C@@H]2N2C(=O)CN(CCc3c[nH]c4ccccc34)C(=O)[C@@]12C	-5%	-1.2%	/	/
Nc1nc(SCc2ccccc2)c2ncn(CCO)c2n1	-8%	-2.8%	/	/
Cc1cccn2c(=O)c3cc(S(=O)(=O)c4ccc(Br)cc4)c(=N)n(C4CCCC4)c3nc12	5%	-0.8%	-6%	/
COC(=O)c1nnn(-c2nonc2N)c1CSc1nnc(N)s1	-12%	-0.2%	1%	-14
COC(=O)C(NC(C)=O)(Nc1nc2c(s1)CCCC2)C(F)(F)F (stereo not given)	-3%	0.1%	0%	-10
Nc1c(N(Cc2ccco2)C(=O)c2ccc(Cl)cc2)c(=O)[nH]c(=O)n1Cc1ccccc1	-1%	-1.9%	/	/
CCOC(=O)c1c(C)[nH]c(C(=O)N2CCC(C(=O)OCC)CC2)c1C	-17%	0.2%	0%	/
O=C(O)c1ccc(COc2ccc(CO)cc2Cl)cc1	-2%	-4.8%	-47%	-9

Entries shown so far containing bromine (two):
SMILES	Rango dissoc inh	Rango-impB inh	miR-21 FLuc	GLA inh pH 4.5
CCOC(=O)C(=NCCCN(C)C)NNc1ccc(Br)cc1	-6%	2.4%	-12%	0
Cc1cccn2c(=O)c3cc(S(=O)(=O)c4ccc(Br)cc4)c(=N)n(C4CCCC4)c3nc12	5%	-0.8%	-6%	/

Whole records as entered above. Values in the order: Rango dissoc inh | Rango-impB inh | miR-21 FLuc | GLA inh pH 4.5
Entry for Cc1cccn2c(=O)c3cc(S(=O)(=O)c4ccc(Br)cc4)c(=N)n(C4CCCC4)c3nc12 = 5% | -0.8% | -6% | /
Entry for Nc1nc(SCc2ccccc2)c2ncn(CCO)c2n1 = -8% | -2.8% | / | /
Entry for COC(=O)c1nnn(-c2nonc2N)c1CSc1nnc(N)s1 = -12% | -0.2% | 1% | -14
Entry for CCOC(=O)[C@H]1[C@H]2COc3cc(OC)ccc3[C@@H]2N2C(=O)CN(CCc3c[nH]c4ccccc34)C(=O)[C@@]12C = -5% | -1.2% | / | /
Entry for COC(=O)c1cc(NC(=O)c2ccc(-c3ccccc3)cc2)ccc1Cl = 1% | 3.7% | -5% | 7

Next section:
SMILES	Rango dissoc inh	Rango-impB inh	miR-21 FLuc	GLA inh pH 4.5
CCOc1ccccc1/C=C(\NC(=O)c1ccccc1)C(=O)NCCC(=O)O	-7%	1.1%	-32%	5
O=C(N[C@@H](Cc1ccccc1)C(=O)N1CCC2(CC1)NCCc1[nH]cnc12)c1cccc(F)c1	3%	-3.0%	0%	/
CC(C)c1nnc(NC(=O)CCc2ccccc2)s1	1%	-0.5%	-43%	/
CN(C(=O)c1ccc(S(=O)(=O)N2CCCC2)cc1)C1CCCCC1	-19%	?	-5%	-6
NNc1nc(-c2ccccc2)c2cc(Br)ccc2n1	0%	3.9%	-7%	/
CC(=O)Nc1ccc(S(=O)(=O)Nc2cccc(N(C)S(C)(=O)=O)c2)cc1	-3%	-0.4%	0%	10
Cc1ccc(S(=O)(=O)NCCn2c(C)cc3ccccc32)cc1	/	/	-8%	-15
COc1ccc(-c2c3c(nc4sc5c(Cl)nc(C)nc5c24)CCC3)cc1	-11%	-2.9%	-1%	6
COc1ccc2c(C)cc(N3CCN(c4ccc(F)cc4)CC3)nc2c1	15%	2.2%	1%	11
CCn1cc(CNCc2cn[nH]c2-c2cc3ccccc3o2)cn1	?	-3.3%	0%	0
Cc1cc(=O)oc2cc(OCC(=O)OCC(=O)Nc3ccc(C(N)=O)cc3)ccc12	4%	1.5%	-17%	-3
COc1cc(C(=O)NCC(=O)N2CCN(S(=O)(=O)c3cc(C)ccc3C)CC2)cc(OC)c1OC	?	-1.6%	17%	/
CCC(C)NCCCOc1ccc(Cl)cc1C(C)(C)C (stereo not given)	2%	1.9%	-5%	5
Cc1ccc(C(=O)NNC(=O)c2cccc(S(=O)(=O)N3CCOCC3)c2)cc1	-9%	0.2%	/	/
Cc1c(OCC(=O)NCC2CCC(C(=O)O)CC2)ccc2c3c(c(=O)oc12)CCC3 (stereo not given)	-1%	-1.5%	-11%	/
COC(=O)c1ccc(NC(=O)Nc2ccc(C)cc2)cc1	-13%	-2.4%	-36%	1
Cn1nccc1C(=O)N1CCN(c2cccc(Cl)c2)CC1	?	4.1%	-1%	/
O=C1NCCCc2nc(Oc3ccccc3)sc21	9%	-3.6%	-13%	-2
Cc1nc2c(-c3ccc(Cl)cc3)cnn2c(N)c1-c1ccc(F)cc1	2%	0.4%	-52%	/
Cc1ccc2[nH]c3c(c2c1)CN(C(=O)CN(C)CC1OCCO1)CC3	?	?	-1%	-14
N#CCc1ccc(NC(=O)c2ccc(S(=O)(=O)N3CCOCC3)cc2)cc1	17%	0.7%	-3%	/
Cc1ccc(CN2CCN(/N=C/c3cccs3)CC2)cc1	1%	1.6%	-5%	-2
CC(C)(c1ccccc1)c1ccc(OCC2CO2)cc1 (stereo not given)	39%	3.4%	-11%	/
CCNS(=O)(=O)c1ccc(C(=O)OCC(=O)N2CCCc3ccccc32)cc1	-5%	-1.6%	/	/
CCC1(c2ccccc2)NC(=O)N(CC(=O)NCc2ccccc2OC)C1=O (stereo not given)	-9%	-1.5%	8%	/

Compounds from the list above that contain a cyano group, in the order listed:
SMILES	Rango dissoc inh	Rango-impB inh	miR-21 FLuc	GLA inh pH 4.5
Cc1nc(SCC(=O)Nc2nccs2)c(C#N)c(C)c1C	26µM*	?	/	/
N#CCc1ccc(NC(=O)c2ccc(S(=O)(=O)N3CCOCC3)cc2)cc1	17%	0.7%	-3%	/

(cont.)
SMILES	Rango dissoc inh	Rango-impB inh	miR-21 FLuc	GLA inh pH 4.5
CC(=O)O[C@H]1[C@H](O)[C@H](Oc2c(O)c(C)c3c4c2[C@@H](C)CC[C@@H]4[C@@H](C)C[C@H]3C=C(C)C)O[C@@H](C)[C@H]1O	2%	-0.2%	/	/
Cc1ccc(-c2nc(S(=O)(=O)c3ccc(C)cc3)c(SCC(=O)NCC3CCCO3)o2)cc1 (stereo not given)	5%	2.8%	1%	/
CCOC(=O)Cn1cnc2c(nnn2-c2cccc(Cl)c2)c1=O	-9%	-3.5%	-1%	/
Cc1noc(NS(=O)(=O)c2ccc(NC(=O)CSc3nc4c(cc3C#N)CCCC4)cc2)c1C	0%	-1.9%	-11%	-4
CC(=O)Nc1ccc(NC(=O)c2nc(S(=O)(=O)Cc3cccc(C)c3)ncc2Cl)cc1	-9%	-0.8%	?	/
Cc1ccc(NC(=O)c2ccc(S(=O)(=O)N(C)c3ccccc3)cc2)cc1S(=O)(=O)N1CCOCC1	-16%	-2.3%	/	/
COc1ccccc1NS(=O)(=O)c1ccc2[nH]c(=O)[nH]c2c1	-5%	5.1%	-2%	/
Cc1ccc(OCC(=O)N2c3ccccc3CC2C)c([N+](=O)[O-])n1 (stereo not given)	18%	2.8%	-10%	3
COc1ccc(NC2CCCN(C(=O)c3cn(C)c4ccccc34)C2)cc1 (stereo not given)	-18%	0.5%	-2%	/
O=[N+]([O-])c1ccc(Cl)c(NC(=S)N2CCCC2)c1	-13%	-0.9%	-30%	/

Not all compounds are listed; rates above refer to the full screens.
